VDR inh: blocks the human vitamin D receptor. VDR-SRC2-3 peptide fluorescence polarization, 2 h. P11473. 400,000 tested, 0.93% active. Potency, µM, without a hit: max response, negative = inhibition, most hits filed as inhibitors. AID 504847; active means well fitted inhibition curve with a large enough effect; inconclusive means small, poorly fitted or top-dose-only effect, or another doubt; inactive means no such curve, though single readings can be large or run the other way; further: series mostly up to about 120 µM
Target sequence (P11473 whole entry, looked up): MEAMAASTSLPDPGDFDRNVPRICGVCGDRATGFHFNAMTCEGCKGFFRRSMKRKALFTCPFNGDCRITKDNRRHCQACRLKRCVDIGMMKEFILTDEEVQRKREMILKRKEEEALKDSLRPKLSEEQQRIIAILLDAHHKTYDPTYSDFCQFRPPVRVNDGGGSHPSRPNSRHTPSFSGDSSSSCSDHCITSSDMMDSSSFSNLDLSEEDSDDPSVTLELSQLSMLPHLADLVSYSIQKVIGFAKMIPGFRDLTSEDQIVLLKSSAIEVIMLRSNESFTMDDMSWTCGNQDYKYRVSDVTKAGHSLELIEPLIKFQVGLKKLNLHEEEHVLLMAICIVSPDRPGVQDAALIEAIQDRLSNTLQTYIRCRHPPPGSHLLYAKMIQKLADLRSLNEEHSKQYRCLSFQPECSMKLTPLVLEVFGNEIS
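Signal is fluorescence polarization, reporting how far test compounds block the interaction of VDR with the SRC2-3 coregulator peptide after a 2 h room-temperature incubation.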
* = called active by the depositor; ? = inconclusive; & = joins results of further samples; [ ] = dose if it differs, or a comment. On the % scale 0 is the no-effect control and ±100 the full control effect; potency means the concentration at half of the fitted maximal effect.

The opening 2 compounds as a preview:
entry	VDR inh	compound
1	-13.5%	CCOC(=O)c1cnc2ccc(C)cc2c1Sc1ccccc1C(=O)OC
2	5.5%	CCCNC(=O)C1(CC2CC(c3ccccc3)=NO2)CCN(C(=O)C2CCCC2)CC1 (stereo not given)

Main list (from the top)
entry	VDR inh	compound
1	-13.5%	CCOC(=O)c1cnc2ccc(C)cc2c1Sc1ccccc1C(=O)OC
2	5.5%	CCCNC(=O)C1(CC2CC(c3ccccc3)=NO2)CCN(C(=O)C2CCCC2)CC1 (stereo not given)
3	8.2%	O=C(Nc1cc(S(=O)(=O)N2CCCC2)ccc1Cl)c1cc(F)c(F)c(F)c1F
4	-23.8%	Cn1c(=O)c2c(nc(CN3CCN(CCO)CC3)n2CCc2ccccc2)n(C)c1=O
5	17.1%	Cc1ccc(N(CC(=O)N/N=C/c2cccc(Br)c2)S(C)(=O)=O)cc1
6	-1.1%	O=C(CCN1C(=O)c2ccccc2C1=O)Nc1ccncc1
7	-9.1%	O=C1CC(NCc2cccs2)C(=O)N1c1ccc(Cl)cc1 (stereo not given)
8	-21.4%	O=C(COC(=O)CSc1ccc(F)cc1)NCc1ccco1
9	16.8%	N/C(=N\OS(=O)(=O)c1cc(Cl)ccc1Cl)c1ccncc1
10	-3.1%	O=C(CSc1ccccc1)N1CCc2c([nH]c3ccccc23)C1c1ccc(Cl)cc1 (stereo not given)
11	-5.3%	CCc1nnc(SCc2nc(-c3ccc(OC)cc3)oc2C)c2cc3sccc3n12
12	14.4%	S=C(Nc1ccc(Cl)cc1Cl)N1CCN(c2ccccn2)CC1
13	-18.9%	O=C(Nc1ccc2c(c1)OCO2)c1ccc(N2C(=O)c3ccccc3C2=O)cc1
14	-7.4%	O=C(NCc1ccncc1)C(=O)NCC1OCCCN1S(=O)(=O)c1ccccc1 (stereo not given)
15	3.5%	Cn1nnnc1NCc1ccc(Cl)cc1

Looked up above.
VDR inh with compound 9 reads 16.8%
VDR inh with compound 1 reads -13.5%
VDR inh with compound 3 reads 8.2%

(continued)
entry	VDR inh	compound
16	-7.4%	Cc1nonc1NC(=O)CSc1nnc(-c2ccoc2C)n1C
17	-8.2%	CCOC(=O)C1=C(CN2CCN(c3ccccc3F)CC2)NC(=O)NC1c1ccc(Cl)cc1 (stereo not given)
18	-20.5%	C=CCSc1n[nH]c2nc3c(c(=O)n12)C1(CCCC1)Cc1ccccc1-3
19	-5.0%	CCOc1ccc(N(CC(=O)Nc2ccccc2C)S(=O)(=O)c2c(C)noc2C)cc1
20	2.7%	COc1ccc(N=C2SC(C(=O)O)CC(=O)N2Cc2ccc(OC)c(OC)c2)cc1 (stereo not given)
21	1.5%	COc1ccc(S(=O)(=O)N2CCCCC2)cc1NC(=O)c1ccccc1
22	-9.8%	C=CCc1c(C)nc2c(-c3ccccc3)cnn2c1N1CCOCC1
23	0.2%	NC(=O)C(=O)N/N=C/c1cccc(C(F)(F)F)c1
24	-14.4%	O=C(Cc1ccc([N+](=O)[O-])cc1)Oc1ccccc1
25	-11.4%	CC(=O)N1CCC2(CCCN(c3ccccn3)C2)CC1
26	-23.2%	CC(C)(C)c1ccc(C(=O)Cn2nc(C(=O)O)c3ccccc3c2=O)cc1
27	-4.0%	CCOC(=O)CNC(=O)CSc1cn(CC(=O)N2CCCCCC2)c2ccccc12
28	1.1%	CC[C@H](C)[C@H](NC(=O)[C@H](CO)NC(=O)[C@@H](NC(=O)[C@H](CO)NC(=O)[C@@H](NC(=O)[C@H](CC(N)=O)NC(=O)[C@H](Cc1ccccc1)NC(=O)[C@H](CO)NC(=O)[C@H](CS)NC(=O)[C@H](CC(N)=O)NC(=O)[C@H](CCCCN)NC(=O)[C@@H](NC(=O)[C@H](CCC(=O)O)NC(=O)CN)[C@@H](C)CC)[C@@H](C)CC)[C@@H](C)O)C(=O)N[C@@H](CCCN=C(N)N)C(=O)O
29	1.3%	Cc1ccc(C2C3=C(CC(C)(C)CC3=O)Nc3n[nH]c(C)c32)cc1 (stereo not given)
30	0.0%	COC(=O)c1c(NC(=O)C2SC(=NC3CCCCC3)C(C(N)=O)=C2N)sc2c1CCCC2 (stereo not given)

From entry 16 up to 20, as listed above:
entry	VDR inh	compound
16	-7.4%	Cc1nonc1NC(=O)CSc1nnc(-c2ccoc2C)n1C
17	-8.2%	CCOC(=O)C1=C(CN2CCN(c3ccccc3F)CC2)NC(=O)NC1c1ccc(Cl)cc1 (stereo not given)
18	-20.5%	C=CCSc1n[nH]c2nc3c(c(=O)n12)C1(CCCC1)Cc1ccccc1-3
19	-5.0%	CCOc1ccc(N(CC(=O)Nc2ccccc2C)S(=O)(=O)c2c(C)noc2C)cc1
20	2.7%	COc1ccc(N=C2SC(C(=O)O)CC(=O)N2Cc2ccc(OC)c(OC)c2)cc1 (stereo not given)

Additional results follow:
entry	VDR inh	compound
31	?	O=C(CCC(=O)OCc1ccc(Br)cc1)Nc1ccccc1
32	?	CCOC(=O)C1(CCc2ccccc2)CCN(Cc2ccc(C(=O)OC)cc2)CC1
33	8.2%	COCCCNc1nc2nonc2nc1N1CCC(C(C)N2CCOCC2)CC1 (stereo not given)
34	-3.3%	O=C(Cc1ccc(O)cc1)NC1CCCCCC1
35	12.7%	Cc1ccc(CCNC(=O)c2cc3sccc3n2Cc2ccc(C)cc2)cc1
36	-7.7%	COc1ncc2nc(-c3cc(F)cc(F)c3)c(=O)n(Cc3cccs3)c2n1
37	-0.1%	C=CCOC(=O)C1=C(C)NC(SCC(=O)Nc2ccccc2)=C(C#N)C1c1ccco1 (stereo not given)
38	20.7%	Cc1nc2ccc(Cl)cn2c1C(=O)NN
39	18.3%	CCNc1nc(NC(C)CC)nc(ON=C(C)C)n1 (stereo not given)
40	-6.0%	COc1cc(NC(=O)C(=O)NCCN2CCNCC2)c(OC)cc1Cl
41	12.6%	Cc1cc(Nc2ccc(Cl)cc2C)nc(-n2nc(C)cc2C)n1
42	15.5%	CCNc1nc(N)c(C(=C(C#N)C#N)c2ccccc2)s1
43	7.5%	CCc1cc2c(cc3c(=O)n(CC(=O)N4CCN(c5ccccn5)CC4)nc(CC)n32)s1
44	?	Nc1ccc(S(=O)(=O)Nc2nccc(/C=C/c3cccc(Br)c3)n2)cc1
45	?	O=C(Nc1ccc(-c2nc3ccccc3s2)c(O)c1)C1=COCCO1
46	5.4%	OC1(c2cccc(C(F)(F)F)c2)CCN(Cc2nc(-c3cnccn3)no2)CC1
47	-3.5%	O=C(Nc1ccc(Cl)c(S(=O)(=O)N2CCOCC2)c1)c1ccc(Cl)nc1
48	0.2%	O=C(COC(=O)c1ccc(Sc2ccccc2)c([N+](=O)[O-])c1)NC1CCCc2ccccc21 (stereo not given)
49	-4.5%	O=C(O)C1CCN1C1CCCCC1 (stereo not given)
50	12.7%	CCc1ccc(NC(=O)c2cc3c(C)nc4ccccc4c3o2)cc1
51	3.6%	CCOc1ccc(-c2c(C)nn3c(C)c(C(=O)NCC(C)c4ccccc4)cnc23)cc1OCC (stereo not given)
52	-2.8%	CCN(CCO)c1ncnc2c1sc1nc(CC(C)C)c3c(c12)CC(C)(C)OC3
53	-9.6%	CCCCCNC(=O)[C@@H]1CSC2c3ccccc3C(=O)N21 (stereo not given in full)
54	6.0%	COC(=O)c1nn(-c2ccc3c(c2)CCN3C(C)=O)cc1O
55	11.2%	O=C(N/N=C/c1ccccc1[N+](=O)[O-])c1ccc(CN2CCOCC2)cc1
56	1.0%	CN1C(=O)[C@H]2[C@@H](/C=C/c3ccccc3)N3C(=O)CN(CCO)C(=O)[C@@]3(Cc3ccccc3)[C@H]2C1=O
57	11.9%	CCCc1ccc(O)c(N=Cc2cc(Br)cc(OCC)c2O)c1
58	11.1%	COc1cc2c(cc1OC)C(C)N(C(=O)c1ccc(C)o1)CC2 (stereo not given)
59	?	Cc1ccc(-n2sc3ccccc3c2=O)cc1S(=O)(=O)N1CCCCC1
60	-18.9%	Cc1cc(Br)ccc1SCC(=O)NNC(=O)c1ccco1
61	-17.6%	COc1ccc(Cl)cc1C1CC(=O)Nc2cc3c(cc21)OCCO3 (stereo not given)
62	0.2%	Cc1ccc(C)c(N2CCN(CCCNC(=O)c3ccc4nc(N5CCCCC5)sc4c3)CC2)c1
63	22.8%	CC(C)(C)NC(=O)CCN(/N=C/c1ccncc1)C1=NS(=O)(=O)c2ccccc21
64	-5.6%	S=C(NCCN1CCOCC1)N/N=C/c1cccs1
65	-3.9%	CCOC(=O)c1c(NC(=O)CSc2nnnn2C)sc(C)c1C
66	10.0%	COCCN(C(=O)c1ccc(-c2ccc(Cl)cc2)o1)c1c(N)n(Cc2ccccc2)c(=O)[nH]c1=O
67	?	CC(C)c1ccccc1NC(=O)COC(=O)Cc1cccc(C(F)(F)F)c1
68	-17.9%	Cc1ccc(NC(=O)c2nc[nH]c2C(=O)N2CCN(C(=O)OC(C)(C)C)CC2)cc1
69	7.3%	O=C(O)CCC(NC(=S)Nc1ccccc1)C(=O)O (stereo not given)
70	-2.3%	O=c1[nH]cnc(O)c1C(c1ccc(Br)cc1)c1c(O)nc[nH]c1=O
71	-11.8%	COc1ccc2nc(SCC(=O)NCc3ccc4c(c3)OCO4)[nH]c2c1
72	-13.5%	CCOc1ccccc1NC(=S)NCCc1ccc(F)cc1
73	?	COc1ccccc1N1CCN(CC(=O)c2ccc3ccn(C(C)=O)c3c2)CC1
74	8.2%	Cc1cc(-c2nn(-c3ccccc3F)cc2CN2CCN(c3ccccn3)CC2)c(C)s1
75	17.5%	OCC1(Cc2ccccc2)CCCN(C2CCCC2)C1 (stereo not given)
76	-7.1%	Cc1cccc(OCc2nnc(SCC(=O)c3c(N)n(C4CC4)c(=O)[nH]c3=O)o2)c1
77	1.0%	COc1ccc2nc(SCC(O)c3cccc(Br)c3)[nH]c2c1 (stereo not given)
78	-5.9%	Cc1ccc(-c2nc(Cn3c(=O)cc(-c4ccccc4)c4c(C)nn(C)c43)c(C)o2)cc1
79	-5.8%	CC(C)CN(C(=O)CN1CCN(c2ccc(F)cc2)CC1)c1c(N)n(CC(C)C)c(=O)[nH]c1=O
80	-7.9%	CCCCCOc1ccc(NC(=O)CCCC(=O)O)cc1
81	-1.7%	O=c1cc(O)c2c(=O)n(-c3ccccc3)c3ccccc3c2o1
82	18.7%	Cc1c(Cl)cccc1NC(=O)N1CCC(CN2CCOCC2)CC1
83	23.6%	CCCOC1CCCN(C(=O)c2cc(COc3c(F)cccc3F)on2)C1 (stereo not given)
84	-11.3%	Cc1nc2ccccc2n1C1CC(=O)N(Cc2ccccc2)C1=O (stereo not given)
85	12.2%	CC(=O)c1nc(N2C(=O)C3CC=C(C)CC3C2=O)sc1C (stereo not given)
86	-22.5%	C/C(=N\Nc1ccccc1Cl)c1ccc(-n2ccnc2)cc1
87	-4.9%	Cc1nnc(SC(C)C(=O)NC2CCCCC2)s1 (stereo not given)
88	-3.6%	COc1ccc(OC)c(CCNC(=O)c2ccc(NC3=NC4CS(=O)(=O)CC4S3)cc2)c1 (stereo not given)
89	8.0%	COc1ccc(CN2CCc3c(c(=O)n4ncc(C(=O)N5CCN(c6ccccc6OC)CC5)c4n3C)C2)cc1
90	-7.3%	COc1ccc(Br)cc1CNC(=O)Cn1ncn2nc(-c3cccs3)cc2c1=O

(list continues)
entry	VDR inh	compound
91	-2.6%	CCOc1ccc(CCNC(=O)c2sc3ncccc3c2-n2cccc2)cc1OCC
92	-5.5%	CC(=O)Nc1ccc(C2Nc3c(C)cc(C)cc3-c3cc(C)nn32)cc1 (stereo not given)
93	-22.4%	CCOC(=O)c1ccc(NC(=O)CNNC(=O)COc2ccccc2C)cc1
94	-13.7%	COc1cccc(NC(=O)CSCc2cc(=O)n3ccsc3n2)c1
95	-6.4%	CC(C)CCN(C(=O)CNC(=O)c1cccs1)C(C(=O)NC1CCCC1)c1ccncc1 (stereo not given)
96	10.1%	Cc1c(CNC2CCCCCC2)c(C(=O)O)c(C)n1Cc1c(F)cccc1Cl
97	11.6%	Cc1noc(C)c1C(=O)N1CCC(Cc2ccccc2)CC1
98	31.4%[activator]	O=C(COc1ccc(Cl)cc1Cl)N/N=C/c1ccccn1
99	-26.6%	CC(C)CN1CC(COCc2ccccc2)Oc2ccccc2S1(=O)=O (stereo not given)
100	11.0%	Cc1cccc(OC(C)C(=O)Nc2ncn[nH]2)c1 (stereo not given)
101	16.7%	CCOc1cc2sc(N3CCC(C(=O)Nc4ccc(C(C)C)cc4)CC3)nc2cc1Br
102	1.3%	CCCS(=O)(=O)Nc1ccc(-c2cn3c(n2)SCC3)cc1
103	-2.1%	CCOC(=O)N1CCN(C(=O)c2c[nH]c3ccc(S(=O)(=O)N(C)c4ccc(F)cc4)cc3c2=O)CC1
104	-5.9%	C[n+]1cn(/N=C/c2ccccc2)c2ccccc21
105	?	O=C(Nc1ccc(S(=O)(=O)N2CCCCC2)cc1)C1CC(=O)N(c2ccc(F)cc2)C1 (stereo not given)

Reformatted: entries from further up
105: O=C(Nc1ccc(S(=O)(=O)N2CCCCC2)cc1)C1CC(=O)N(c2ccc(F)cc2)C1 (stereo not given)
- VDR inh: ?

13: O=C(Nc1ccc2c(c1)OCO2)c1ccc(N2C(=O)c3ccccc3C2=O)cc1
- VDR inh: -18.9%

16: Cc1nonc1NC(=O)CSc1nnc(-c2ccoc2C)n1C
- VDR inh: -7.4%

79: CC(C)CN(C(=O)CN1CCN(c2ccc(F)cc2)CC1)c1c(N)n(CC(C)C)c(=O)[nH]c1=O
- VDR inh: -5.8%

The listing continues:
entry	VDR inh	compound
106	-6.0%	Cc1nc(N2CCN(c3ccccc3)CC2)nc2c1C(=O)CC(c1ccccc1)C2 (stereo not given)
107	2.2%&5.1%	CC(=O)Nc1ccccc1C(=O)C(=O)O
108	8.4%	COC(=O)c1ccc(S(=O)(=O)NCCc2ccccc2OC)n1C
109	8.1%	CCCC(=O)Nc1ccccc1NC(=O)CCC
110	6.3%	O=C(COc1ccc(Cl)cc1Cl)N/N=C1\CCCc2ccccc21
111	-6.4%	C#CCNC(=O)C1=C[C@H](c2ccccc2)[C@@H](CCCO)[C@H](OCC)O1
112	-23.8%	CC(C)(C)c1ccc(OCC(=O)NNC(=S)NC(=O)c2ccccc2[N+](=O)[O-])c(Br)c1
113	-12.0%	CC(=O)c1ccc(OCCCC(=O)N2CCN(S(=O)(=O)c3ccc(C)cc3C)CC2)cc1

Assay outcomes deposited in PubChem by National Center for Advancing Translational Sciences (NCATS).

Not all compounds are listed. The share of hits here may be higher or lower than overall.
